T cruzi inh = blocks replication of Trypanosoma cruzi; AID 1885; hit rate 1.4% among 300,000; T. cruzi beta-gal in NIH3T3, luminescence, 90 h; inhibition, % (no concentration beside the values);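 active = mean inhibition across valid replicates above about 55%, limit read from the data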;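 note: signal also drops with host cell toxicity which is not excluded here; 0% = plate median of DMSO wells and 100% = zero luminescence signal; higher percent means less beta-gal luminescence so fewer parasites; stock transfer was 50 nL into about 50 µL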
UCH37 DUB inh = blocks the human deubiquitinase UCH37; Q9Y5K5; purified proteasome/UCH37, Ub-AMC cleavage fluorescence; inhibition, % (no concentration beside the values); hit rate 0.33% among 330,000;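 active = mean of two replicates above 20%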;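 note: 0% = compound-free wells with enzyme and 100% = wells lacking proteasome; stock transfer was 100 nL into about 20 µL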
Target sequence (Q9Y5K5 whole entry, looked up): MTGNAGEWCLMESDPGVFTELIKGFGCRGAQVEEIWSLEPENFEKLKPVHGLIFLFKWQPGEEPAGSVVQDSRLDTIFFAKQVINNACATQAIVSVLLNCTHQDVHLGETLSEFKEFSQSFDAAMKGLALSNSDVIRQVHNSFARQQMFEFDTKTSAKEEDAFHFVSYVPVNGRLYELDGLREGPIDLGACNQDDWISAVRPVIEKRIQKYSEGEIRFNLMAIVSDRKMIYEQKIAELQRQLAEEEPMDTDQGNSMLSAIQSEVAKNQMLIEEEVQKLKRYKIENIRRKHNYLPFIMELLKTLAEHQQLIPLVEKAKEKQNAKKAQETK
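Material: human UCH37 enzyme supplied as purified proteasome complex / Amount: 0.15 nM proteasome as dispensed / Buffer or medium: pH 7.4 Tris-HCl (50 mM) with ovalbumin, ATP-MgCl2, DTT / Times: preincubation 30 min, reaction 25 min, room temperature / Technique: AMC fluorescence from Ub-AMC cleavage, excitation 355 nm, emission 460 nm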
Ecoli growth = inhibitors of Escherichia coli growth; OD600, 23 h; stronger effect = lower value; AID 1053175; hit rate 0.21% among 330,000; OD600 absorbance (no concentration beside the values);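 active = OD600 absorbance below the run mean of sample wells minus 3.6 SD, in any replicate, cut at about 0.56 in these data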;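 note: stock transfer was 300 nL into about 60 µL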
Beta cell apopt = beta cell apoptosis inhibition; hit rate 0.8% among 300,000; INS-1E cytokine-induced death, ATP luminescence, 48 h; percent of positive-control rescue, neutral wells zero; protection from apoptosis, % (test concentration not listed); AID 435005;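 active = all replicates at 75% or more, or half of them and the mean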;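 note: 0% = cytokine-treated negative control wells and 100% = positive control rescue; higher means more ATP so stronger rescue from cytokine killing; wells of about 40 µL received 100 nL stock; the first replicate is given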
Ecoli rRNA inh = inhibits bacterial ribosomal RNA function over humanized ribosomes | E. coli WT GFP vs humanized-ribosome RFP mutants, fluorescence, 24 h; stronger effect = lower value; DMSO median 0, no signal -100 | GFP signal change (wild-type ribosome), % (no concentration beside the values) | hit rate 1.6% among 350,000 | AID 720706;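 active = significant combined selectivity score with lowered wild-type GFP, culture density cut under 30%, mutant RFP and density less affected; inactive = any of these conditions unmet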; note: one replicate is shown; some compounds called inactive have numbers as strong as hits
AF4-AF9 inh = MLL-AF4/AF9 protein interaction inhibition | P42568 | AlphaScreen, biotin-AF4 peptide binding to FLAG-AF9 | inhibition, % at 10 µM | hit rate 0.47% among 350,000 | AID 651704;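 active = every replicate reaching a set inhibition limit, whatever the replicate mean, cut at about 25% in these data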;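 note: 0% = plate neutral control median and 100% = total signal loss; the record names both 10 and 1 µM as test concentration; the first replicate is given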
Target sequence (P42568 whole entry, looked up): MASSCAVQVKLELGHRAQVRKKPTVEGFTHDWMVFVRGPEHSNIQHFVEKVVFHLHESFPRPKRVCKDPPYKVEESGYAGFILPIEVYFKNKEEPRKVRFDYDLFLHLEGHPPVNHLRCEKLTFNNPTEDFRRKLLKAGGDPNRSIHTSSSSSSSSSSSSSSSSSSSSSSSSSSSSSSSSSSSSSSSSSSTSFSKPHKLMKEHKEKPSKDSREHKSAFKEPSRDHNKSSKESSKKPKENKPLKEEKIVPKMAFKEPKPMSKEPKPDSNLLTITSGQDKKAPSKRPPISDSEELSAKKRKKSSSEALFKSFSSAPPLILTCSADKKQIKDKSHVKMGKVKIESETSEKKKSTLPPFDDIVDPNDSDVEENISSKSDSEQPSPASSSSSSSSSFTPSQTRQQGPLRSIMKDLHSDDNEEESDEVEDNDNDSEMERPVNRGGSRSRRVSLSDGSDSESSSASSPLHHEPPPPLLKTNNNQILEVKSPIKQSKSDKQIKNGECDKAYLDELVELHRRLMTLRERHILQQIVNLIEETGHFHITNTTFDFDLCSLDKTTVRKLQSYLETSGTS
Bfl-1 A1 inh = inhibitors of the anti-apoptotic protein A1, read as caspase activation. caspase activation, % (test concentration not listed). hit rate 0.066% among 330,000. MEF A1-2A-BIM cells, Caspase-Glo 3/7 luminescence, 3 h; percent of clofoctol response, vehicle zero;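 active = over half of replicate activation scores above 10%, or exactly half above 10 with the replicate mean above 10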;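 note: wells of about 30 µL received 50 nL stock; many hits fall short of the cut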
FGF22 binding = FGF22 (human) thermal shift binding; Q9HCT0; recombinant FGF22 thermal shift, SYPRO orange fluorescence; percent of sucrose octasulfate shift, DMSO zero; calls only at 9.99 µM; hit rate 1.5% among 340,000; AID 651658;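 active = melting point raised past a set limit in the mean and every replicate; three in four hits are not shown here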
Target sequence (Q9HCT0 whole entry, looked up): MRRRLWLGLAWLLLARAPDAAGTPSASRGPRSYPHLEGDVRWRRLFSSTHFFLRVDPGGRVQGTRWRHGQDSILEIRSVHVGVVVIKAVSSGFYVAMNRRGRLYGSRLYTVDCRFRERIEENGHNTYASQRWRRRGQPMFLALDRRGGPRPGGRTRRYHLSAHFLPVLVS
Ecoli rRNA inh OD600 = further read-out of Ecoli rRNA inh, marked with its call; OD600 change, %; measured here: OD600 growth;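 optical density of the mix in the first replicate; 0 = DMSO median and -100 = no signal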
Ecoli rRNA inh RFP = second read-out of Ecoli rRNA inh, no call of its own (marks repeat the call); RFP signal change, %; measured here: RFP humanized mutant strains;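 first replicate; 0 = DMSO median and -100 = no signal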
An asterisk follows results filed as active; i = inactive; nt = not tested or not shown. Only part of the results is shown; count on the stated rates, not on these rows.

no.	smiles	T cruzi inh	UCH37 DUB inh	Ecoli growth	Beta cell apopt	Ecoli rRNA inh	Ecoli rRNA inh OD600	Ecoli rRNA inh RFP	AF4-AF9 inh	Bfl-1 A1 inh	FGF22 binding
1	COc1ccc(N2CCN(C3CCN(S(=O)(=O)c4ccc(F)cc4)CC3)CC2)cc1	4	7.4	0.72	0	12	14	-1.1	3.7	0.1	i
2	CCN(CC)CCN(C(=O)c1ccc(S(=O)(=O)N(CC)c2ccccc2)cc1)c1nc2c(OC)ccc(OC)c2s1	12	2.5	0.73	-8	-1	5	2.2	2.0	-0.7	i
3	CCOC(=O)C(NC(C)=O)C(=O)Nc1ccc(C)cc1C (centres undefined)	-21	3.0	0.74	-7	21	14	7.0	-5.0	-0.9	nt
4	CCOC(=O)[C@H]1[C@H]2COc3cc(OC)ccc3[C@@H]2N2C(=O)c3cc(OC)c(OC)cc3NC(=O)[C@@]12C	nt	-1.8	nt	0	-1	-6	0.4	3.0	-0.3	i
5	Cc1ccc(OCC(=O)NNC(=O)C2CCN(c3nccc(C)n3)CC2)cc1	-11	-13	0.66	-9	nt	nt	nt	nt	1.2	nt
6	COc1ccc(OCC(=O)OCC(=O)Nc2ccc(S(=O)(=O)N3CCCCC3)cc2)cc1	-9	0.2	0.75	-4	nt	nt	nt	nt	0.3	nt
7	CC1CC(C)CN(C(=O)Cn2c(SCC(=O)N3CCc4ccccc4C3)nc3ccccc32)C1 (centres undefined)	14	4.3	0.79	-3	nt	nt	nt	nt	0.4	nt
8	COc1ccc(-c2nnc(Nc3ccc(S(=O)(=O)Nc4nccs4)cc3)c3ccccc23)cc1	-4	2.2	0.7	nt	20	16	2.5	-2.2	nt	i
9	Cc1cc(CSc2ccccc2)ccc1NC(=O)COc1ccccc1	16	1.8	0.75	4	nt	nt	nt	nt	0.3	nt
10	COc1ccc2c(c1)C(C)=CC(C)(C)N2C(=O)CN1C(=O)CCC1=O	4	2.3	0.69	-5	nt	nt	nt	nt	-0.9	nt
11	O=C(Nc1ccc(S(=O)(=O)N2CCOCC2)cc1)c1ccc(=O)[nH]c1	-6	2.1	0.68	-10	6	-5	6.0	-3.2	0.6	i
12	CCOP(=O)(Nc1ccc2oc(=O)c3ccccc3c2c1)OCC	1	-9.5	0.68	-6	-12	-10	0.0	-15	-1.0	i
13	O=C(C1CCCO1)N1CCN(C(=S)Nc2ccc(Cl)cc2)CC1 (centres undefined)	-22	-0.5	0.71	-9	8	-2	-3.3	-67	0.5	i
14	COc1ccc(C2/C(=C(/O)c3cnn(-c4ccccc4)c3C)C(=O)C(=O)N2CCN(C)C)cc1OC (centres undefined)	nt	15	0.72	nt	12	1	2.2	-8.5	nt	i
15	CC(=O)n1nc(-c2ccccc2)nc1NCc1ccc(F)cc1	-10	0.2	0.71	-5	nt	nt	nt	nt	0.5	nt
16	CCOc1ccccc1NC(=O)C1CCCN(S(=O)(=O)c2ccc3c(c2)C(C)(C)C(=O)N3C)C1 (centres undefined)	7	1.9	0.76	2	-7	-13	-1.5	-1.3	0.9	i
17	O=C(CCc1ccccc1)Nc1ccccc1[N+](=O)[O-]	-20	1.4	0.65	1	nt	nt	nt	nt	-2.4	nt
18	C#CC[N+](C)(C)CC#Cc1ccc(Cl)cc1	-5	5.3	0.66	8	3	1	-0.1	-4.7	0.5	i
19	COc1ccc(CN(C(=O)c2ccc(-c3ccccc3)[nH]2)C(C(=O)NCC2CCCO2)c2ccc(C)o2)cc1 (centres undefined)	39	2.5	0.69	-1	nt	nt	nt	nt	1.4	nt
20	COc1ccc(OCc2cc(C(=O)NCCCc3ccccc3)no2)c(Cl)c1	7	1.6	0.67	-2	-10	-21	-2.2	-1.1	-0.2	i

A draw from above in order of formula weight, smallest number first:
no.	smiles	T cruzi inh	UCH37 DUB inh	Ecoli growth	Beta cell apopt	Ecoli rRNA inh	Ecoli rRNA inh OD600	Ecoli rRNA inh RFP	AF4-AF9 inh	Bfl-1 A1 inh	FGF22 binding
11	O=C(Nc1ccc(S(=O)(=O)N2CCOCC2)cc1)c1ccc(=O)[nH]c1	-6	2.1	0.68	-10	6	-5	6.0	-3.2	0.6	i
14	COc1ccc(C2/C(=C(/O)c3cnn(-c4ccccc4)c3C)C(=O)C(=O)N2CCN(C)C)cc1OC (centres undefined)	nt	15	0.72	nt	12	1	2.2	-8.5	nt	i
19	COc1ccc(CN(C(=O)c2ccc(-c3ccccc3)[nH]2)C(C(=O)NCC2CCCO2)c2ccc(C)o2)cc1 (centres undefined)	39	2.5	0.69	-1	nt	nt	nt	nt	1.4	nt

Additional compounds.
no.	smiles	T cruzi inh	UCH37 DUB inh	Ecoli growth	Beta cell apopt	Ecoli rRNA inh	Ecoli rRNA inh OD600	Ecoli rRNA inh RFP	AF4-AF9 inh	Bfl-1 A1 inh	FGF22 binding
21	Cc1nc(-c2ccc3c(c2)CCC(=O)N3)cs1	-24	5.7	0.7	nt	nt	nt	nt	-2.7	-2.7	i
22	O=C1C2ON(c3ccc(Cl)cc3)C(c3ccco3)C2C(=O)N1c1ccccc1 (centres undefined)	3	5.5	0.67	1	nt	nt	nt	nt	-1.0	nt
23	Cc1cccc(C(C(C(=O)c2ccccc2)N2CCOCC2)N2CCOCC2)c1 (centres undefined)	nt	1.8	0.72	nt	-4	1	-1.1	2.7	nt	nt
24	Cc1ccc(CNC(=O)CSc2ccc(-c3ccco3)nn2)cc1	2	0.8	0.68	-4	nt	nt	nt	nt	-0.4	nt
25	O=C(NCCN1C(=O)S/C(=C\c2ccc(OC(F)F)cc2)C1=O)c1cnccn1	-4	4.0	0.66	9	-5	-15	-8.7	0.7	0.9	i
26	CCOc1ccc(CC(=O)Nc2ccc(S(=O)(=O)Nc3cc(C)on3)cc2)cc1OCC	-27	2.4	0.68	-8	nt	nt	nt	nt	-0.6	nt
27	COc1cccc(-c2csc(N3CCN(C(=O)Nc4ccccc4OC)CC3)n2)c1	-1	2.6	0.67	-3	-21	4	34	-3.7	1.4	i
28	Cc1ccc(-n2c(C)cc(/C([O-])=C(/C(=S)Nc3ccc(F)c(Cl)c3)[n+]3ccccc3)c2C)cc1	29	6.6	0.71	nt	nt	nt	nt	nt	-0.4	nt
29	COc1ccc(CCNC(=O)CN2CCC(n3nnc4cc(F)ccc43)CC2)cc1OC	nt	3.7	0.65	nt	-1	1	-7.3	-0.4	nt	i
30	CN(C)C(=O)COC(=O)c1cccc(S(=O)(=O)N2CC3(C)CC2CC(C)(C)C3)c1 (centres undefined)	nt	-0.2	0.62	-4	nt	nt	nt	-1.1	1.1	i

Down the list, as entered above.
Ecoli rRNA inh RFP, nos. 23–29: -1.1, nt, -8.7, nt, 34, nt, -7.3

(list continues)
no.	smiles	T cruzi inh	UCH37 DUB inh	Ecoli growth	Beta cell apopt	Ecoli rRNA inh	Ecoli rRNA inh OD600	Ecoli rRNA inh RFP	AF4-AF9 inh	Bfl-1 A1 inh	FGF22 binding
31	COc1ccc(/C=N/NC(=O)c2cccc(NC(=O)c3ccccc3Cl)c2)cc1	-10	nt	nt	-3	-10	-2	3.5	-4.9	0.4	i
32	O=C(CN1C(=O)CCSc2ccccc21)Nc1cccc(F)c1	-11	5.3	0.71	-5	nt	nt	nt	nt	0.4	nt
33	Cc1c(C(=O)Nc2cccc(S(=O)(=O)N3CCCC3)c2)oc2ccccc12	-3	2.3	0.73	8	4	15	-5.6	5.4	0.2	nt
34	COc1ccc(/C=C2/C(=O)N(c3ccccc3)N=C2C)c(OC)c1	-11	1.9	0.67	-1	-1	5	-0.8	7.1	-1.0	i
35	COc1ccc2[nH]c(CN3CCC(n4nccc4NC(=O)C4CC4)CC3)c(C)c2c1	25	-7.8	0.66	-3	3	10	-0.1	-8.0	0.9	i
36	N#Cc1ccc(NC(=O)c2nc(-c3ccccc3)n(-c3ccccc3)n2)cc1	1	3.5	0.68	14	nt	nt	nt	nt	1.6	nt
37	Cc1ccc(C(=O)NCC(=O)OCC(=O)N2CC(C)OC(C)C2)cc1 (centres undefined)	-11	-2.8	0.69	-3	-3	5	-3.6	-0.8	1.0	i
38	COc1ccc(-c2nnc3n2N=C(C)CS3)cc1OC	-3	3.6	0.65	-6	nt	nt	nt	nt	-0.3	nt
39	Cc1sc2ncnc(N(C)CCc3ccccn3)c2c1C	-6	0.2	0.65	-1	5	-4	-5.3	1.2	-0.1	i
40	CCOc1ccc(NC(=O)Cn2nnc(C(=O)NCc3ccc(OC)cc3)c2N)cc1	-12	3.3	0.69	nt	8	15	1.1	0.4	-0.2	i
41	Cc1ccc(C(=O)CCC(=O)N2CCN(C(=O)c3ccco3)CC2)cc1	-10	2.6	0.68	3	-1	1	-1.8	-0.5	1.3	i
42	CCCCNc1c(-c2ccc(Sc3ccc(OC)cc3)cc2)nc2cc(C)ccn12	nt	0.9	0.81	12	-19	-30	-27	-1.2	0.1	i
43	O=c1c2ccccc2sn1-c1ccc(S(=O)(=O)N2CCCC2)cc1	63*	3.7	0.71	12	nt	nt	nt	nt	-4.5	nt
44	CCc1nnc(NC(=O)NC(C)(C)C)s1	4	3.4	0.69	-5	6	3	1.4	nt	-0.2	nt
45	CCOC(=O)N1CCN(S(=O)(=O)c2ccc(C(=O)N(CCN(CC)CC)c3nc4c(C)cccc4s3)cc2)CC1	34	1.5	0.7	-1	6	-2	5.1	4.4	-0.6	i
46	CCCc1nnc(SCc2ccc(C(=O)OC)o2)n1N	2	3.3	0.73	-2	nt	nt	nt	nt	0.3	nt
47	CC(OC(=O)CC1CCCC1)C(=O)Nc1ccc(S(N)(=O)=O)cc1 (centres undefined)	0	0.4	0.62	-2	-2	5	-3.2	5.2	-0.3	i
48	Cc1onc(-c2ccccc2)c1C(=O)NN1CCOCC1	nt	-0.6	0.69	2	5	13	-1.7	0.8	0.7	i
49	O=C(NCCc1ccccn1)c1c(-c2ccsc2)sc2ccccc12	nt	1.6	0.66	nt	1	-11	-0.7	-3.8	nt	nt
50	CCn1cc(S(=O)(=O)NCc2ccc(OC)cc2)cn1	-10	2.4	0.68	-5	4	8	-1.7	0.0	0.3	i
51	COc1ccc(C(=O)OCC(=O)c2ccc(C)c(S(=O)(=O)N3CCOCC3)c2)cc1OC	-11	2.3	0.71	1	4	3	-2.4	-5.8	-0.9	i
52	CC1=C(C(=O)Nc2ccccc2C)C(c2ccc(C)o2)C2=C(CCCC2=O)N1 (centres undefined)	-2	-12	0.67	-4	1	2	-0.9	-0.7	0.9	i
53	CC(=O)C12CC(C)=C(C)CC1CC1C3CCC4=CC(=O)CCC4(C)C3CCC12C (centres undefined)	-2	6.0	0.63	nt	-18*	7.8*	5.4*	5.4	1.0	i
54	CCCNC(=O)C1(CC2CC(c3ccccc3)=NO2)CCN(C(=O)C2(C)CC2)CC1 (centres undefined)	0	0.8	0.57	1	9	8	-1.6	-0.5	0.3	i
55	Cc1cccc(N2CCN(C(=O)c3ccc(CS(=O)Cc4ccc(Cl)cc4)o3)CC2)c1C (centres undefined)	-1	5.9	0.7	nt	-37	-66	5.2	3.4	0.5	i
56	S=C(Cc1ccccc1)NCCc1ccccc1	-19	0.5	0.67	9	6	-5	-4.9	1.3	0.3	i
57	Cc1noc(C)c1C(=O)Nc1cc(Cl)ccc1N1CCOCC1	nt	2.5	0.68	2	3	5	-3.2	0.5	-0.2	i

Source: PubChem BioAssay (several laboratories)
